miR-21 reporter = miR-21 reporter, rising signal. HeLa miR-21 FLuc reporter, luciferase, 48 h. Potency, µM (doses to about 38.3 µM), without a hit: at the top dose reporter change, positive = more light. 340,000 tested, under 10 active. AID 2288; active = well fitted rising curve with a large enough effect; inconclusive = small, poorly fitted or top-dose-only effect; inactive = no such curve, though single readings can be large or run the other way;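 also: % of control where 0% means no effect; miR-21 action dims this reporter so a rising signal means less miR-21 action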
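HeLa cells stably expressing CMV-driven firefly luciferase with a downstream miR-21 binding sequence, endogenously expressing miR-21, were treated with titrations (up to about 40uM final) for 48 hours at 37 degree Celsius. Luciferase luminescence was read after lysis.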
GLA inh pH 4.5 = inhibitors of human alpha-galactosidase A at pH 4.5; purified enzyme, 4-MU-alpha-Gal fluorescence, pH 4.5; 230,000 tested, under 10 active; activity change, negative = inhibition, % at 105 µM; AID 1467; P06280; inconclusive = small, poorly fitted or top-dose-only inhibition, or a rising curve; inactive = flat fitted curve, though single readings scatter; no compound was filed as active;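 also: 0% = full activity with enzyme and -100% = basal without enzyme; dose as in the result columns while the protocol names 77 µM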
Target sequence (P06280 whole entry, looked up): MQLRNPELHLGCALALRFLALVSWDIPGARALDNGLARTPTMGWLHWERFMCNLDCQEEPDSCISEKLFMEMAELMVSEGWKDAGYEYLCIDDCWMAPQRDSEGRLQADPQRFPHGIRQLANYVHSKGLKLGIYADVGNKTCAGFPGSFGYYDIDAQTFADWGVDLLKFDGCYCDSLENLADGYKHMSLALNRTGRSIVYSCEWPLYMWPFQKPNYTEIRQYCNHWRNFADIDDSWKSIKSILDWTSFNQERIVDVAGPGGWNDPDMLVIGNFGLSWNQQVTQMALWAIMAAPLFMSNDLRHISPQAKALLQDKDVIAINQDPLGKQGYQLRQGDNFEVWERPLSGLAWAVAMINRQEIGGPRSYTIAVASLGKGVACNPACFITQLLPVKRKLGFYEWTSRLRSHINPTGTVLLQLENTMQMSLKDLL
Rango release inh = prevents RanGTP from dissociating the Rango-importin beta complex; Potency, µM (top dose mostly 46.1 µM), inactives show at the highest dose activity change, negative = inhibition; Biochemical FRET Rango-importin beta, RanGTP-induced dissociation; hit rate 0.071% among 340,000; AID 540253; O95149+P62826; active means falling FRET ratio curve, often poorly fitted, with flat reads before Ran was added; inconclusive means other falling curves, or compound fluorescence or quenching; inactive means flat or rising ratio curve;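 also: potency is read from the fitted curve at half-maximal effect; % of control where 0% means no effect; nearly all actives have a fitted effect of over 45% in size; -100% = wells without RanGTP and RCC1; the record marks most hits as doubtful in a second field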
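Two FRET readings bracket the reaction: one 5 min after compound meets Rango–importin beta, another 45 min after RanGTP-RCC1 (0.6 uM Ran, 0.2 uM RCC1, 2 mM GTP) is added. Only the second defines inhibition.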
Rango-impB inh = Rango-importin beta binding inhibition. hit rate 0.031% among 340,000. Potency, µM (doses to about 92.2 µM), for inactives: top-dose inhibition of complex formation. Rango CFP/YFP FRET sensor + importin beta, 45 min. Q14974. AID 540263; active = rising FRET ratio curve, often small or poorly fitted; inconclusive = mostly compound fluorescence or quenching in the first reads; inactive = flat curves in all reads;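 also: potency is read from the fitted curve at half-maximal effect; 0% = DMSO wells and 100% = buffer wells lacking importin beta; nearly all actives have a fitted effect of over 15% in size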
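Inhibition scored from the CFP 486 nm/YFP 530 nm FRET ratio 45 min after adding 0.125 microM importin beta to 50 nM Rango biosensor preincubated 5 min with compound (room temperature, PBS with DTT, Tween-20, BSA). No-importin wells as positive control.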
An asterisk follows results filed as active; u = inconclusive; x = not tested or not shown; [ ] = remark or other dose. Some of the compounds tested, so the mix of outcomes need not match the whole.

SMILES	miR-21 reporter	GLA inh pH 4.5	Rango release inh	Rango-impB inh
CC(C)OC(=O)c1cccnc1N1CCN(c2ccc(F)cc2)CC1	0%	-5	-4%	-2.0%
COc1ccccc1NC(=O)C1CCCN(C(=O)Nc2ccc(F)cc2)C1 (configuration not stated)	10%	x	4%	-0.8%
CCCCn1c(C(C)NC(=O)CC)nc2ccccc21 (configuration not stated)	6%	5	-15%	-2.4%
Nc1ccccc1SSc1ccccc1N	1%	5	-18%	0.1%
CCOC(=O)Nc1cccc(OCC(=O)Nc2ccc(OC)cc2OC)c1	8%	-10	-2%	-2.0%
O=S(=O)(c1ccccc1)N1CCN(c2nnnn2-c2ccccc2)CC1	-3%	0	14%	-0.4%
NC(=O)c1ccccc1Br	-4%	4	13%	3.3%
O=C(Nc1ccc(N2CCN(C(=O)c3ccccc3F)CC2)cc1)c1cncc(Br)c1	10%	x	-1%	1.3%
Cc1cc(C)cc(N(CCC(=O)Nc2nnc(C)s2)S(=O)(=O)c2ccc(Cl)cc2)c1	-8%	-16	19%	-3.6%
COC(=O)c1cc(S(=O)(=O)N2CCN(c3ccccc3)CC2)c[nH]1	2%	x	0%	0.1%
CSCC[C@H](NC(=O)C1CCN(C(=O)[C@H](Cc2ccccc2)NS(=O)(=O)c2ccc(C)cc2)CC1)C(=O)O	1%	x	8%	6.1%
CCc1nnc(NC(=O)CSc2nnc3c(n2)[nH]c2ccccc23)s1	-2%	-6	-2%	1.4%
O=C1C(Cc2ccccc2)Nc2ncnc(N3CCOCC3)c2N1Cc1ccccc1 (configuration not stated)	x	x	-8%	-0.6%
O=C(Nc1ccc(OC(=O)c2ccco2)cc1)c1ccco1	-19%	-1	-2%	0.9%
O=C(COC(=O)c1ccc(CNS(=O)(=O)c2ccc(F)c(Cl)c2)cc1)NCC1CCCCC1	-2%	7	-14%	-1.7%
Cc1c(Cl)cccc1NC(=O)CSc1nccn1C	-13%	x	-13%	0.5%
Cc1ccc(OCc2nc3c4c(ncn3n2)-c2ccccc2CC42CCCC2)cc1	5%	-5	8%	4.7%
CN(C)C(=O)CSc1nnc(Cc2ccccc2)n1CC1CCCO1 (configuration not stated)	-3%	5	1%	2.9%
O=C(Nc1ccc(Cl)cc1Cl)c1cccc(N2C(=O)C=CC2=O)c1	-11%	4	19%	2.6%
COc1ccc(C2/C(=C(\O)c3ccc4c(c3)CC(C)O4)C(=O)C(=O)N2Cc2cccnc2)c(OC)c1 (configuration not stated)	1%	x	15%	3.7%
Cc1[nH]ccc(=O)c1OCc1c(F)cccc1Cl	0%	6	0%	-3.6%
COC(=O)COc1ccccc1C(N)=O	0%	-10	2%	3.3%
CCCCn1c(N)c(N(CC(C)C)C(=O)C2CCN(S(=O)(=O)c3ccc(OCC)cc3)CC2)c(=O)[nH]c1=O	x	x	28%	2.6%
CC(CN1CCN(Cc2ccccc2)CC1)c1ccccc1 (configuration not stated)	-3%	x	-3%	-0.1%
C=CCn1c(NCCO)nc2c1c(=O)n(C)c(=O)n2C	11%	6	2%	-0.7%

Later entries.
SMILES	miR-21 reporter	GLA inh pH 4.5	Rango release inh	Rango-impB inh
CN(C)C(=O)N1CCC(C(=O)NCc2ccc3c(c2)OCO3)CC1	-1%	2	4%	-1.7%
CCN1CCCC1Cn1cnc2c([nH]c3cccc(Cl)c32)c1=O (configuration not stated)	-7%	-4	1%	5.7%
CCC1Sc2ccc(S(=O)(=O)CCC(=O)NCc3ccco3)cc2NC1=O (configuration not stated)	15%	x	u	0.4%
COc1ccc(NC(=O)c2cccc(S(=O)(=O)N3CCN(C)CC3)c2)c(OC)c1	-3%	x	-19%	-1.7%
COc1c2c(nc3ccccc13)OC(C(C)(O)COC(C)=O)C2 (configuration not stated)	7%	-1	9%	1.5%
Cc1ccc(CSCC(=O)Nc2cc(S(=O)(=O)N3CCOCC3)ccc2OC(C)C)cc1	x	x	17%	3.4%
Cc1sc(NC(=O)c2ccco2)c(C(c2cccnc2)N2CCN(c3ccc(F)cc3)CC2)c1C (configuration not stated)	25%	-7	-12%	0.1%
CCc1ccccc1NC(=O)c1ccc(-n2c(C)ccc2C)cc1	-10%	-7	-7%	0.6%
Cc1cc(Br)ccc1SCC(=O)OCC(=O)Nc1ncc(C(F)(F)F)cc1Cl	-1%	-3	9%	-0.5%
COc1ccc(-c2cc(=Nc3c(C)n(C)n(-c4ccccc4)c3=O)c3ccccc3o2)cc1	-62%	15	1%	4.6%
C=C1/C=C(\C)C(C)(O)CC(O)CC(=O)C(O)C(O)C(C)CC(C)OC(=O)/C(C)=C/CC/C=C/C(OC)C(O)CC(C)C1 (configuration not stated)	x	x	5%	-0.5%
CCCCn1c(N)c(N(CC(C)C)C(=O)c2cccc(OCc3ccccc3)c2)c(=O)[nH]c1=O	x	x	-14%	-1.7%
C=CCn1c(O)c(C2=c3ccccc3=NC2=O)c2ccccc21	u	x	-1%	-0.8%
COC(=O)CCN(C1CCCCC1)S(=O)(=O)c1ccc(S(=O)(=O)NC2CCCCC2)cc1	9%	-14	-5%	-0.3%
O=[N+]([O-])c1cc(S(=O)(=O)NCCCN2CCOCC2)ccc1Cl	0%	-3	0%	3.4%
CCC(CC)NCc1ccc(OC)cc1OC	0%	4	10%	-0.2%
O=C(/C=C/c1ccc(Cl)c(Cl)c1)n1cccn1	0%	7	10%	4.6%
CCc1ccccc1NC(=O)COc1ccc(N2CC(C(N)=O)CC2=O)cc1 (configuration not stated)	-2%	x	4%	-2.4%
COCCNC(=O)C(=O)N/N=C(\C)CC(=O)Nc1ccc(Cl)cc1Cl	-11%	5	-5%	u
CCOC(=O)c1ccc(CNC(=O)Cn2nnc(-c3ccc(C)cc3)n2)o1	-7%	10	-4%	4.9%
Nn1c(=S)[nH]nc(Cc2ccc(O)cc2)c1=O	-10%	-8	-5%	-2.0%
Cc1ccc(C(CNC(=O)c2ccc(Br)o2)N2CCN(C)CC2)cc1 (configuration not stated)	x	x	-1%	-3.3%
Cc1ccc(NC(=O)CCN2C(=O)CSC2=O)c(C)c1	-7%	-2	0%	-1.8%
Cc1ccc2c(c1)c1c(n2CC(O)Cn2c(C)nc3ccccc32)C(=O)CCC1 (configuration not stated)	0%	-6	2%	1.6%
O=C(Cn1c(-c2ccccc2)c[n+]2ccsc12)c1ccc(Br)cc1	18%	-2	-6%	-4.2%

The closing two entries of the part above open the next one.
SMILES	miR-21 reporter	GLA inh pH 4.5	Rango release inh	Rango-impB inh
Cc1ccc2c(c1)c1c(n2CC(O)Cn2c(C)nc3ccccc32)C(=O)CCC1 (configuration not stated)	0%	-6	2%	1.6%
O=C(Cn1c(-c2ccccc2)c[n+]2ccsc12)c1ccc(Br)cc1	18%	-2	-6%	-4.2%
C/C(=N\NC(=O)Cc1csc(N2CCOCC2)n1)c1ccc(Cl)c(Cl)c1	2%	3	-7%	-0.1%
COc1ccc(F)cc1C(=O)C1CCCN(Cc2cccn2-c2cccnc2)C1 (configuration not stated)	7%	-2	-20%	1.5%
O=C(NCc1cccc(Cl)c1)C1=CC=CN2CCS(=O)(=O)N=C12	x	x	-7%	0.4%
COc1ccc(-c2csc(-c3cccs3)n2)cc1OC	-62%	3	23%	-0.3%
OCCSc1nc(N2CCOCC2)nc(N2CCOCC2)n1	-1%	1[21.1 µM]	-3%	0.2%
Cc1cccc(C)c1NC(=O)CNC(=O)Cc1c[nH]c2ccccc12	x	x	-12%	-0.6%
CCc1c(C(=O)NCc2cnn(C)c2)csc1C	25%	-4	24%	-3.8%
COc1ccccc1CNC(=O)C1CCN(S(=O)(=O)N2CCCCC2)CC1	-10%	-10	1%	2.5%
COc1cccc(/C(O)=C2\C(=O)C(=O)N(c3ccccn3)C2c2cccc(OC)c2OC)c1 (configuration not stated)	-7%	u	-12%	-5.3%
CCOCCn1c(N2CCN(c3ccc(OC)cc3)CC2)nc2c1c(=O)[nH]c(=O)n2C	0%	1	3%	1.3%
CCOc1ccccc1N1CC(C(=O)NCCC2=CCCCC2)CC1=O (configuration not stated)	x	x	-5%	-1.3%
CCCC(C(=O)NC(C)(C)C)N(Cc1ccccc1Cl)C(=O)c1snc(C(N)=O)c1N (configuration not stated)	21%	x	-15%	-2.5%
Cc1cc(=O)[nH]c2c1c(C)nn2C1CCCCC1	-6%	-11	1%	-0.3%
COc1cc(CSC)nc(-c2ccccc2)n1	3%	6	5%	-0.1%
O=C(CNC(=O)c1ccccc1)OCc1ccc([N+](=O)[O-])cc1	-11%	3	0%	1.3%
C=CCNC(=O)c1ccc(C)c(Br)c1	-12%	4	-7%	2.0%
Cc1n[nH]c(C)c1N1C(=O)c2cccc3c(N4CCCCCC4)ccc(c23)C1=O	0%	-15	u	u
COc1ccc(NC(=S)N2CCC(C(O)(c3ccccc3)c3ccccc3)CC2)cc1	-13%	-7	-9%	-4.4%
CC1CN(C(=O)CS(=O)(=O)Cc2ccc(Cl)cc2)CC(C)O1 (configuration not stated)	0%	x	16%	-0.1%
COc1ccccc1-n1cc(C(=O)NCC(=O)N2CCN(c3ccccc3)CC2)c2ccccc2c1=O	-16%	-3	-6%	-3.8%
CC1CC(C)(C)CC2(C1)NC(=S)N(c1ccccc1)N2 (configuration not stated)	-21%	-2	-2%	1.9%
Cc1cccc(Nc2ncc3c(n2)CC(c2ccco2)CC3=O)c1 (configuration not stated)	-19%	4	u	-2.3%
CS(=O)(=O)Nc1ccc(C(=O)NC2CCCCC2)cc1	0%	0	u	1.5%
COc1ccc(C(=O)COC(=O)c2cc(S(=O)(=O)NCc3ccccc3)ccc2O)cc1	-7%	-11	-15%	-1.9%
CCOc1ccc(C(C(=O)NCC2CCCO2)N(C(=O)c2snc(C(N)=O)c2N)c2cccc(F)c2)cc1 (configuration not stated)	13%	x	-4%	0.4%

A few values from the results shown.
C=C1/C=C(\C)C(C)(O)CC(O)CC(=O)C(O)C(O)C(C)CC(C)OC(=O)/C(C)=C/CC/C=C/C(OC)C(O)CC(C)C1 (configuration not stated) in Rango-impB inh: -0.5%
C/C(=N\NC(=O)Cc1csc(N2CCOCC2)n1)c1ccc(Cl)c(Cl)c1 in Rango-impB inh: -0.1%
Cc1ccc(OCc2nc3c4c(ncn3n2)-c2ccccc2CC42CCCC2)cc1 in Rango release inh: 8%

Single records, as listed above. Order of screens: miR-21 reporter, GLA inh pH 4.5, Rango release inh, Rango-impB inh
`COc1cc(CSC)nc(-c2ccccc2)n1` as listed: 3%, 6, 5%, -0.1%
`Cc1ccc(OCc2nc3c4c(ncn3n2)-c2ccccc2CC42CCCC2)cc1` as listed: 5%, -5, 8%, 4.7%
`CCOC(=O)Nc1cccc(OCC(=O)Nc2ccc(OC)cc2OC)c1` as listed: 8%, -10, -2%, -2.0%
`Cc1cc(C)cc(N(CCC(=O)Nc2nnc(C)s2)S(=O)(=O)c2ccc(Cl)cc2)c1` as listed: -8%, -16, 19%, -3.6%
`O=C(Nc1ccc(OC(=O)c2ccco2)cc1)c1ccco1` as listed: -19%, -1, -2%, 0.9%

Later entries.
SMILES	miR-21 reporter	GLA inh pH 4.5	Rango release inh	Rango-impB inh
CC(C)(C)N(Cc1ccccc1)C(=O)CSc1nc2ccccc2c(=O)[nH]1	-4%	1	1%	-0.2%
O=C(Cn1cnc2c(oc3ccccc32)c1=O)NCCc1ccccc1	x	x	-1%	0.8%
CCn1c(C)nnc1SCC(=O)Nc1nccs1	3%	x	0%	-2.5%
CCCS(=O)(=O)c1nc(S(=O)(=O)c2ccc(C)cc2)c(N2CCC(O)CC2)s1	1%	x	19%	u
Cn1c(=O)oc2cc(S(=O)(=O)NCCN3CCc4ccccc4C3)ccc21	-6%	7	1%	u
C=CCOc1ccc(CNc2nn[nH]n2)cc1	-1%	3	-10%	3.2%

High-throughput results (PubChem BioAssay)
